STK33 kinase inh = blocks human STK33 kinase activity | purified STK33, MBP phosphorylation, ADP-Glo luminescence | inhibition, % at 10 µM | 320,000 tested, 0.073% active;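 active means inhibition at or above 25%, using the most active replicate where run in duplicate; inactive means inhibition below 25%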
Target sequence (Q9BYT3 whole entry, looked up): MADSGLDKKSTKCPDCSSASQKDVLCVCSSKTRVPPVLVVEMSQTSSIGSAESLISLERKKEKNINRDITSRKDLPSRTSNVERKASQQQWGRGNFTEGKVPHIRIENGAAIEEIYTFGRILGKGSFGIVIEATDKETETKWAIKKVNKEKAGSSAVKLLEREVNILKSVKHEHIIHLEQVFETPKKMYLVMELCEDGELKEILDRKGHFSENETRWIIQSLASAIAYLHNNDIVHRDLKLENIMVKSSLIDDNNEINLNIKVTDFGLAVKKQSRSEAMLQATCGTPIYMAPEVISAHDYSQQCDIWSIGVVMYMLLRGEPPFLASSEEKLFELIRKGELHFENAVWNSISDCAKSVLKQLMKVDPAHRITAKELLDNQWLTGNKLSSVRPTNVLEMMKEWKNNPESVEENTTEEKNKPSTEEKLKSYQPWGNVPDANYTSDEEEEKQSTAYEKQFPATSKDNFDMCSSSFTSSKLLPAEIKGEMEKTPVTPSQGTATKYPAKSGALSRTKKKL
* marks the source's active call; other numbers are inactive results. Only part of the results is shown; most or all hits stand in other tables.

SMILES	STK33 kinase inh
Cc1cc(C)n(CCNS(=O)(=O)c2ccc(Cl)cc2)n1	-1.8
O=C(NNC1=NC2(CCCC2)Cc2ccccc21)c1ccncc1	-0.7
Cc1cccc(NC(=O)c2cc([N+](=O)[O-])ccc2N2CCN(C)CC2)c1	-3.8
O=C(Nc1ccc(S(=O)(=O)N2CCOCC2)cc1)c1ccc(F)cc1	0.5
CC(NC(=O)COC(=O)Cc1ccccc1[N+](=O)[O-])c1ccccc1 (configuration not stated)	0.5
O=C1CC(C(=O)NCCc2ccccc2)SC(=Nc2ccccc2)N1 (configuration not stated)	1.1
Cc1c(C=O)c2ccccn2c1C(=O)c1cccs1	2.7
Cc1ccc(S(=O)(=O)NCC2(c3ccccc3)CCOCC2)cc1	0.8
Cc1cccn2c(=O)nc(SCC(=O)NC3CCCC3)nc12	0.2
O=C(CSC1CN(C(c2ccccc2)c2ccccc2)C1)N/N=C/c1ccc(Cl)cc1Cl	-2.7
Cn1c(=O)c2[nH]c(Nc3ccccc3)nc2n(C)c1=O	-0.6
Cc1ccc(NC(=O)CN(c2ccc3c(c2)OCO3)S(=O)(=O)c2c(C)n[nH]c2C)cc1	1.0
CCOc1ccccc1NC(=O)Cn1c(=O)n(CCC(=O)NC2CCCC2)c(=O)c2ccccc21	-0.9
Cc1cc(C)n(-c2nc3ccccc3n3nnnc23)n1	-2.1
CCc1cc2c(=O)c(-c3cnn(-c4ccccc4)c3)c(C)oc2c(CN2CCCCC2)c1O	-0.5
CCCCN(C(=O)c1cc(=O)[nH]c2ccccc12)c1c(N)n(CCCC)c(=O)[nH]c1=O	-0.8
CC1(C)CC(=O)C=C(OC(=O)c2ccc(Cl)cc2)C1	0.4
COCc1[nH]nc2c1C1(CCC3(CC1)OCCO3)C(C#N)=C(N)O2	-0.4
CCn1c(SCC(=O)O)nnc1-c1cc2c(C)nn(-c3ccccc3)c2s1	0.3
COCCOC(=O)C1=C(N)Oc2c(oc(CO)cc2=O)C1c1ccccc1F (configuration not stated)	1.9
O=C(O)c1ccc(C(=O)C(=O)c2ccccc2)cc1	-1.9
O=C(Cc1ccc(O)cc1)NCCNC(=S)NCc1ccccc1	-0.1
CC(C)CNC(=O)CSc1nc2scc(-c3ccccc3)c2c(=O)[nH]1	-1.3
CCC1(C(=O)OC)NC(c2ccco2)C2C(=O)N(c3ccc(C)cc3)C(=O)C21 (configuration not stated)	-0.7
CCN(CC)CCNC(=O)c1c(O)c2c([nH]c1=O)CCCC2	-0.1
Cc1cccc(OCC(=O)N/N=C/c2ccccc2C(=O)O)c1	-1.6
CCS(=O)(=O)Nc1ccccc1C(N)=O	-1.3
O=C1Nc2ccc(Br)cc2/C1=C/C1CC=CCC1 (configuration not stated)	7.6
CCN(CC(=O)NCc1ccc(Cl)cc1)C(=O)CSc1cc(C)ccc1C	-1.1
Cc1ccncc1C(N)=O	-1.6
CN(C)c1ccc(-c2cccc(C3CC=CC4C3C(=O)N(Cc3ccccc3)C4c3ccc4ccccc4c3)c2)cc1 (configuration not stated)	-4.3
C/C(CCN1CCc2nc(-c3ccccc3)c(-c3ccccc3)cc2C1)=N\OC[C@@H](C)[C@H](OCc1ccccc1)C(C)C	-0.8
CN(C)S(=O)(=O)c1ccc(C(=O)OCc2nnc(-c3ccccc3)o2)cc1	1.9
Cc1cccc(N(C(=O)Cc2cccs2)C(C(=O)NCc2ccco2)c2ccncc2)c1 (configuration not stated)	-0.6
COc1cccc(N2CCN(c3nc(-c4ccccc4C)cc(=O)[nH]3)CC2)c1	0.2
Cc1sc2nc(SCC(=O)NCc3cccs3)[nH]c(=O)c2c1C	-1.6
CCOC(=O)N1CCN(C(=O)c2ccc(C)c(S(=O)(=O)Nc3ccccc3)c2)CC1	-2.0
CCN(CC)S(=O)(=O)c1ccc2[nH]c(=O)c3ccccc3c2c1	-14
O=C(Nc1ccc([N+](=O)[O-])cc1)OCCc1ccccn1	-1.6
O=C(COC(=O)c1ccccc1O)Nc1ncc(Cl)cc1Cl	-1.1

Random excerpt: six records from the list
SMILES	STK33 kinase inh
O=C(Nc1ccc([N+](=O)[O-])cc1)OCCc1ccccn1	-1.6
Cc1cccc(N(C(=O)Cc2cccs2)C(C(=O)NCc2ccco2)c2ccncc2)c1 (configuration not stated)	-0.6
Cc1sc2nc(SCC(=O)NCc3cccs3)[nH]c(=O)c2c1C	-1.6
O=C(COC(=O)c1ccccc1O)Nc1ncc(Cl)cc1Cl	-1.1
COc1cccc(N2CCN(c3nc(-c4ccccc4C)cc(=O)[nH]3)CC2)c1	0.2
CN(C)S(=O)(=O)c1ccc(C(=O)OCc2nnc(-c3ccccc3)o2)cc1	1.9

Additional structures:
SMILES	STK33 kinase inh
CCOC(=O)N1CCN(c2cc(=O)n(-c3ccc(C)cc3)c(=O)[nH]2)CC1	-0.2
COc1ccccc1NS(=O)(=O)c1cc(C(=O)N2CCCCCCC2)ccc1C	-1.3
CCOc1ccc(/C=C2\SC(=O)N(CCNC(=O)CN3C(=O)NC4(CCCC4)C3=O)C2=O)cc1OC	0.5
Cc1ccc(C)c(OCC(=O)Nc2ccccc2C(=O)N2CCN(C)CC2)c1	-0.7
COc1cc(/C=N/n2nnnc2N)cc(Cl)c1OC	-0.7
C=CCSc1nc(C)c(Cc2cccc3ccccc23)c(=O)[nH]1	0.9
CN(CC(=O)Nc1ccc(F)cc1)C(=O)c1cc(-c2ccco2)nc2ccccc12	-0.6
Cc1cc(NC(=O)c2cc(-c3ccco3)on2)nn1Cc1ccc(Cl)cc1	0.8
COc1ccc(/C=N/NC(=O)CCn2nc(C)cc2C)cc1O	-1.4
Cc1ccc(NC(=S)NNc2ncc(C(F)(F)F)cc2Cl)c(C)c1	1.3
O=C(CCN1C(=O)/C(=C/c2ccccc2)SC1=S)NCCCN1CCOCC1	0.6
Nc1ccc(Cl)c(S(=O)(=O)Nc2ccccc2Cl)c1	-0.5
Cc1cccc(CNc2ccc(C(CC(N)=O)NC(=O)c3ccccc3)cc2[N+](=O)[O-])c1 (configuration not stated)	-0.3
O=c1[nH]c(-c2ccccc2)c(-c2ccccc2)o1	-1.6
O=C(Cc1cccs1)Nn1c(Cc2cccs2)nc2ccccc2c1=O	-1.3
COC(=O)Cc1nnc(Nc2cccc(C)c2)c2ccccc12	0.8
COc1ccc(-c2cc(C(=O)Nc3ccc(C)cc3)no2)cc1	0.8
CCOc1ccc(CNC(=O)C2CCN(c3nnc(C)c4c(C)n(-c5ccc(C)cc5)nc34)CC2)cc1	-0.4
COc1ccccc1-n1cc(C(=O)N2CCCC(CO)(Cc3ccccc3C)C2)cn1 (configuration not stated)	1.5
O=C(CN1/C(=C(/O)c2ccccc2)C(=O)c2ccccc2S1(=O)=O)c1ccccc1	0.3
O=C(CCCC(=O)Nc1ccc(Br)cc1)N/N=C/c1ccccc1	-1.7
O=C(O)c1ccc(-c2ccc(-c3ccccc3)cc2)s1	0.4
CCS(=O)(=O)N1Cc2ccccc2CC1C(=O)Nc1cccc(C)c1 (configuration not stated)	-2.0
CC1(C)CC(NC(=O)COc2ccc3ccccc3c2)CC(C)(C)N1	-2.5

Compounds from the list above that have bromine, in the order listed:
SMILES	STK33 kinase inh
O=C1Nc2ccc(Br)cc2/C1=C/C1CC=CCC1 (configuration not stated)	7.6
O=C(CCCC(=O)Nc1ccc(Br)cc1)N/N=C/c1ccccc1	-1.7

(cont.)
SMILES	STK33 kinase inh
CC(O)c1cccc(NC2=CC(=O)CC(C)(C)C2)c1 (configuration not stated)	-0.4
Cc1cc([N+](=O)[O-])ccc1NC(=O)CCC(=O)N1CCCC1	-3.5
COc1ccccc1CNC(=O)[C@H](C)NC(=O)C1CCN(C(=O)[C@@H](N)CCSC)CC1	2.1
[O-]/C(=C(\C(=S)Nc1ccc(SC(F)F)cc1)[n+]1cccc(CO)c1)c1ccc(Cl)s1	0.6
CC(C)n1cc(C(=O)c2ccccc2O)cc(C#N)c1=O	-1.1
CC(C)CC(=O)N1CCN(C(=O)c2ccc(-c3ccccc3)cc2)CC1	-1.1
CC(Cl)C(=O)Nc1ncc(C(F)(F)F)cc1Cl (configuration not stated)	-1.8
CN(C)C1(CNC(=S)Nc2ccccc2C(F)(F)F)CCCCC1	0.0
Cc1ccc(N(CC(=O)NCc2ccccn2)S(=O)(=O)c2ccccc2)cc1C	1.2
CSc1ncc(C(=O)O)n1-c1ccc(F)cc1	0.2
O=C(Nc1nc(-c2ccccc2)cs1)c1ccc(Br)o1	-0.1
O=C(NC(Cc1ccccc1)C(=O)O)C1CCN(S(=O)(=O)c2ccccc2C(F)(F)F)CC1 (configuration not stated)	-1.2
C[N+]1(CCCCCCC(=O)/C=N/O)CCCCCC1	-0.7
COc1ccc(C(=O)Nc2ccccc2C(=O)O)cc1Cl	0.5
Cc1cc(C)cc(N(CC(=O)NCCSCc2ccccc2)S(C)(=O)=O)c1	-0.8
Oc1ccc(-c2sc(Nc3ccccc3)n[n+]2-c2ccc(F)cc2)cc1	-0.9
Nc1ccc(C(=O)N(CCO)CCO)cc1	-0.7
CCOC(=O)C1Cn2c(nc3c(c2=O)C(C)(CC)Cc2ccccc2-3)S1 (configuration not stated)	-1.0
CCOC(=O)N1CCN(C(=O)CN(c2ccc(Oc3ccccc3)cc2)S(C)(=O)=O)CC1	-0.7
O=C(Nc1nnc(-c2ccncc2)o1)c1ccccc1F	0.6
NC(=O)C1CCN(C(=O)CN(c2cccc(C(F)(F)F)c2)S(=O)(=O)c2ccccc2)CC1	0.1
O=C(Oc1cccc(C(=S)N2CCOCC2)c1)c1ccc([N+](=O)[O-])cc1	0.1
CCc1ccc(CN2CCC(CO)(CC3CCCCO3)CC2)o1 (configuration not stated)	-2.2
NNC(=O)C1c2ccccc2Oc2ccccc21	-3.7
Cc1ccc(NC(=O)C(=O)NCCCN2CCCC2=O)cc1	1.4
O=C1CSC(c2ccc([N+](=O)[O-])cc2)N1Cc1ccccc1 (configuration not stated)	0.4
Cc1cc(/C([O-])=C(/C(=S)Nc2ccccc2)[n+]2ccccc2)c(C)n1-c1ccccc1	-0.7
CCn1ccnc1CN1CCc2c([nH]c3ccccc23)C1C1CCCCC1 (configuration not stated)	0.5
CCCc1cc(C(=O)NCCc2ccccc2)no1	-0.3
Cn1c(C(=O)OC(C(=O)NC2CCCCC2)c2ccccn2)cc2sccc21 (configuration not stated)	1.9
COc1ccc(Br)cc1CN(C)C(=O)c1ccc2c(c1)NC(=O)C(C)S2 (configuration not stated)	1.4
FC(F)Sc1ccc(NC(=S)NCc2ccccc2)cc1	-1.3
COc1ccc(-c2c(C)nn3c(-c4ccccc4)cc(C)nc23)cc1	-0.5
C/C(=N\NC(=O)c1ccc2c(c1)OCO2)c1ccc(NC(=O)CCCC(=O)O)cc1	0.8
O=C(CC1Sc2ccccc2NC1=O)Nc1ccccc1[N+](=O)[O-] (configuration not stated)	-0.5
CCN(CC)CCCn1c2c(c(SCC(=O)Nc3ccc(C)c(F)c3)nc1=O)CCC2	-0.7
O=C(N/N=C/c1ccc2c(c1)OCO2)c1ccc(NC(=O)c2ccccc2Cl)cc1	-0.5
C[C@@H](CN1C(=O)C(=O)NC[C@@H]1C)NC(=O)CC12CC3CC(CC(C3)C1)C2	0.6
O=C(Nc1cccc(C(=O)N2CCOCC2)c1)c1ccccc1	-2.5
CC(C)c1ccc(NC(=S)NN(c2ccccc2)c2ccccc2)cc1	-0.6
CCCn1c(N)c(N(CCOC)C(=O)Cc2ccc(S(=O)(=O)N3CCOCC3)s2)c(=O)[nH]c1=O	-0.1
COCCNC(=O)CCc1c(C)nc2c(c(C)nn2-c2ccc(C)cc2)c1C	-0.6
CCc1cc(-c2n[nH]c(=S)n2N)n(C)n1	-1.6
Cc1ccc(NC2SC(=O)N(Cc3cccc(C(=O)O)c3)C2=O)c(C)c1 (configuration not stated)	-2.4
COc1ccc(NS(=O)(=O)c2ccc(N3CCOCC3)c(NC(=O)c3ccccc3Cl)c2)cc1	-1.6
CCNC(=S)Nc1sc2c(c1C#N)CCC(C)C2 (configuration not stated)	-1.8
CCCC(=O)Nc1ccc(C#Cc2ccccc2)cc1	-0.5
CC(C)Cn1c2c(c(=O)[nH]c1=O)C(C(F)(F)F)(C(F)(F)F)N=C(CCC1CCCCC1)N2	0.3
Cc1nn(-c2ccc(Cl)c(Cl)c2Cl)c(=O)c2ccccc12	-0.9
CC(C)N(Cc1cc2ccccc2[nH]c1=O)C(=O)c1cccc([N+](=O)[O-])c1	-1.7
O=C(COn1nnc2ccccc21)NCC1CCCCC1	-0.2
O=C(N1CCN(c2ccccc2F)CC1)C1(c2cccs2)CCOCC1	-1.0
O=C(c1ccc(F)cc1)n1cc(C(=S)N2CCOCC2)c2ccccc21	-0.5
CCOc1cc(C=O)cc(Cl)c1OCC(N)=O	1.9
COc1ccc(-c2nn(-c3ccccc3)cc2C(=O)O)cc1OC	0.0
COc1ccccc1N1CCN(C(=O)c2cc(=O)c3cc(C)ccc3o2)CC1	0.5

More results follow:
SMILES	STK33 kinase inh
COC(=O)N1[C@H](Cc2ccccc2)C=C[C@]1(C)C(=O)NCc1ccccn1	-1.2
Cn1nnnc1SCC(=O)Nc1nc(-c2ccc(F)c(F)c2)cs1	-0.4
COc1ccc(Cl)cc1N1Cc2ccccc2C1	-0.1
C/C(CC(=O)Nc1ccc(N(C)C)cc1)=N\NC(=O)C(=O)NCc1ccccc1	-1.7
CC12CC3(C)CC(C)(C1)CC(C(=O)NCc1cccnc1)(C2)C3	0.1
COC(=O)c1cn(Cc2ccc(C(F)(F)F)cc2)cc(F)c1=O	-3.2
CC(C)C(C)NC(=O)COc1ccc(S(=O)(=O)N2CCOCC2)cc1Cl (configuration not stated)	0.6
